High-throughput results (PubChem)
Polio RdRp inh – poliovirus RdRp elongation inhibitors, primary screen, biochemical, fluorescence polarization, total intensity. poliovirus polymerase elongation; hits give low values. % elongation, % (compound at 16.7 µg/mL). 0.66% of 150,000 active; in the data active means % elongation below about 90%; further: some results filed as inactive read as strong as hits
Target sequence (P03300 1749-2209 limits assumed): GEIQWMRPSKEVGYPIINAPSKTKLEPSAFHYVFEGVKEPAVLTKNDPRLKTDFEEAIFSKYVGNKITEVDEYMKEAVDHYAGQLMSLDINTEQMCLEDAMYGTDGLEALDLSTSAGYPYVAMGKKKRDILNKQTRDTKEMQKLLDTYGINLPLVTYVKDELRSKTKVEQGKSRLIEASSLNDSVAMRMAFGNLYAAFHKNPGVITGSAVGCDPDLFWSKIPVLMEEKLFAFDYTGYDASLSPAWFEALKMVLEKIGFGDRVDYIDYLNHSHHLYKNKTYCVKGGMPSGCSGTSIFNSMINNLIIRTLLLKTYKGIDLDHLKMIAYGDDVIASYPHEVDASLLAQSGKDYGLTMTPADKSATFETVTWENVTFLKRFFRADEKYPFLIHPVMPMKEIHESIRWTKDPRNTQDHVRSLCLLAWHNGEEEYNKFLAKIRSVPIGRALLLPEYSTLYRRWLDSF
Polio RdRp inh intensity – recorded beside Polio RdRp inh, whose call it bears; % elongation; measured here: total intensity read-out; formula for this scale not given here;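 total fluorescence in place of polarization; lower means less elongation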
The depositor's hits bear a star. This is a subset. The share of hits here may be higher or lower than overall.

Start of the listing, in advance (3 entries):
SMILES | Polio RdRp inh | Polio RdRp inh intensity
N#Cc1ccc(-c2cccs2)nc1SCc1ccc(Cl)cc1Cl | 110.0 | 113.0
CNC(=O)CSc1cn(CC(=O)N2CCCCCC2)c2ccccc12 | 110.0 | 106.0
Cc1ccc(-c2nc(NC(=O)CSc3ccc4ccccc4n3)ns2)cc1 | 104.0 | 105.0

All compounds of this part, previewed entries included:
SMILES | Polio RdRp inh | Polio RdRp inh intensity
N#Cc1ccc(-c2cccs2)nc1SCc1ccc(Cl)cc1Cl | 110.0 | 113.0
CNC(=O)CSc1cn(CC(=O)N2CCCCCC2)c2ccccc12 | 110.0 | 106.0
Cc1ccc(-c2nc(NC(=O)CSc3ccc4ccccc4n3)ns2)cc1 | 104.0 | 105.0
Cc1ccccc1C(=O)N1CC(=O)Nc2ccc(Cl)cc2C1c1ccccc1 (centres undefined) | 108.0 | 111.0
CCN(CC)c1ccc(C2C(C(N)=O)=C(C)Nc3nc(SCc4ccccc4)nn32)cc1 (centres undefined) | 108.0 | 112.0
CCOc1ccc(CNS(=O)(=O)c2ccc3c(c2)CC(C)N3C(C)=O)cc1OC (centres undefined) | 108.0 | 108.0
COc1ccc(NC(=O)CN2C(=O)CC(c3ccco3)Sc3ccccc32)cc1OC (centres undefined) | 107.0 | 110.0
Nc1c(C(=O)Nc2cccc(F)c2)nnn1-c1cccc(C(F)(F)F)c1 | 106.0 | 103.0
COCCCNC(=O)Cn1c(=O)n(Cc2ccc(C(=O)NCc3ccc(C)cc3)cc2)c(=O)c2ccccc21 | 113.0 | 113.0
Brc1cccc(-c2cnn3c(-c4ccccc4)cc(-c4ccccc4)nc23)c1 | 112.0 | 118.0
COc1ccc(Cl)cc1NC(=O)Nc1c[nH]c(=O)[nH]c1=O | 109.0 | 112.0
O=C(Cn1c(=O)n(-c2ccccc2)c(=O)c2sc3ccccc3c21)N1CCCC1 | 109.0 | 110.0
CCN(C(=O)C1CCC(CNS(=O)(=O)c2cccc3nsnc23)CC1)c1cccc(C)c1 (centres undefined) | 107.0 | 111.0
O=C(Cn1c(=O)n(-c2ccc(Cl)cc2)c(=O)c2c3c(sc21)CCC3)c1ccc(F)cc1 | 106.0 | 108.0
CC(=O)c1ccc(N2CCN(c3ncnc4c3c(-c3ccccc3)cn4-c3ccc(C)c(Cl)c3)CC2)cc1 | 109.0 | 113.0
COc1ccc(N2CC(NC(=O)c3ccc(S(=O)(=O)N4CCCCC4)cc3)CC2=O)cc1 (centres undefined) | 103.0 | 105.0
CCC(C(=O)Nc1cc(OC)cc(OC)c1)n1nc(-c2ccc(C)c(C)c2)ccc1=O (centres undefined) | 101.0 | 103.0
CN(C(=O)CSc1nc2ccc(NC(=O)c3ccco3)cc2s1)c1ccccc1 | 108.0 | 101.0
CCN1CCN(Cc2nc3cc(NC(=O)c4cc(OC)c(OC)c(OC)c4)ccc3n2CC)CC1 | 98.0 | 94.0
COc1ccc(C2=C(N3CCN(c4cc(Cl)ccc4C)CC3)c3ccccc3C2=O)cc1 | 103.0 | 108.0
Cc1cccc(NC(=O)c2ccc3nc(CCc4ccccc4)oc3c2)c1C | 101.0 | 108.0
OCCCn1c(-c2ccc(F)cc2)csc1=Nc1ccc(F)cc1 | 99.0 | 101.0
CN(C(=O)C(=O)Nc1ccc2nc3n(c(=O)c2c1)CCCCC3)c1cccc(C(F)(F)F)c1 | 105.0 | 107.0
Cc1ccc(N(C)C(=O)CCS(=O)(=O)c2cc3c(cc2Cl)NC(=O)CO3)cc1 | 113.0 | 108.0
Cc1cccc(N2CCN(C(=O)CCCn3c(=O)[nH]c4ccsc4c3=O)CC2)c1C | 100.0 | 104.0
Cc1ccc(-c2nc(CS(=O)(=O)CC(=O)NCCc3ccccc3)c(C)o2)cc1 | 108.0 | 110.0
COc1ccc(CCNC(=O)CCn2c(=O)c3ccccc3n(CC(=O)Nc3ccc(C)cc3C)c2=O)cc1OC | 107.0 | 103.0
COc1ccc(-c2onc(C)c2C)cc1S(=O)(=O)N1CCN(c2cc(C)ccc2C)CC1 | 103.0 | 108.0
Cc1cccc(N2CCN(C(=O)c3cccn4c(=O)c5cc(Cl)ccc5nc34)CC2C)c1 (centres undefined) | 104.0 | 109.0
CCOC(=O)c1c(S(=O)(=O)N2CCCC(C(=O)N3CCN(c4cc(C)ccc4C)CC3)C2)c(C)n(C)c1C (centres undefined) | 104.0 | 109.0
COC(=O)c1sc2cccc(F)c2c1S(=O)(=O)NC(C)c1ccccc1 (centres undefined) | 111.0 | 113.0
CCOc1ccc(NC(=O)CC2C(=O)N(c3ccc(F)cc3)C(=O)N2CCc2sccc2C)cc1 (centres undefined) | 108.0 | 105.0
CCOC(=O)c1[nH]c(C)c(CCC(=O)NCc2ccc(CC)cc2)c1C | 108.0 | 114.0
Cc1ccc(OCC(=O)Nc2nnc(SCc3cc(=O)c4ccccc4[nH]3)s2)cc1 | 108.0 | 116.0
O=[N+]([O-])c1ccc(C(c2sc3nc(-c4ccco4)nn3c2O)N2CCN(c3cccc(Cl)c3)CC2)cc1 (centres undefined) | 107.0 | 114.0
CCOc1ccc(NC(=O)N2CCC(C(N)=O)(N3CCCCC3)CC2)cc1 | 106.0 | 110.0
COC(=O)c1ccccc1NC(=O)c1cnc2c(-c3cccc(C)c3)c(C)nn2c1C | 111.0 | 99.0
CCc1ccc(CN(Cc2ccco2)C(=O)c2cc(-c3ccc(Cl)cc3)on2)cc1 | 111.0 | 111.0
CCc1ccc(S(=O)(=O)c2nnn3c2nc(N2CCC(C(N)=O)CC2)c2cc(Cl)ccc23)cc1 | 103.0 | 108.0
Cc1ccc2c(c1)C(c1ccc(F)cc1)N(C(=O)COc1ccc(Cl)cc1Cl)CC(=O)N2 (centres undefined) | 109.0 | 104.0
COCCCNC(=O)Nc1cc(C(=O)NCc2ccc(OC)cc2)ccc1N1CCCC1 | 101.0 | 106.0
COc1ccccc1CN1CCC(CNC(=O)c2cnn(-c3cccc(Cl)c3)c2C2CCN(C(=O)OC(C)(C)C)CC2)CC1 | 109.0 | 107.0
CC(NC(=O)Nc1cc(Cl)ccc1Cl)c1c(-n2cccc2)sc2c1CCCC2 (centres undefined) | 107.0 | 110.0
O=C(NCC(c1cccnc1)N1CCc2ccccc2C1)C(=O)Nc1ccc(Cl)cc1 (centres undefined) | 104.0 | 103.0
CCCC(=O)c1cc2c(cc1NC(=O)c1ccccc1F)OCCO2 | 104.0 | 102.0
CC(C)N(C)C1CCN(S(=O)(=O)c2ccc3[nH]c(=O)ccc3c2)CC1 | 109.0 | 116.0
COc1ccccc1NC(=O)CSC1=Nc2ccccc2C2=NC(CCC(=O)NCc3ccco3)C(=O)N12 (centres undefined) | 108.0 | 112.0
CCc1ccc(-n2nnc(-c3nsc(NC(=O)c4ccccc4Cl)n3)c2C)cc1 | 109.0 | 111.0
Cc1ccc(-n2c(=O)c3c(cnn3C)n(CC(=O)Nc3cc(C)ccc3C)c2=O)cc1 | 107.0 | 110.0
CC(=O)c1ccc(NC(=O)CN(C)S(=O)(=O)c2cccc3nsnc23)cc1 | 108.0 | 112.0
CCc1cc2c(cc3c(=O)n(CC(=O)NCCc4ccc(OC)c(OC)c4)ncn32)s1 | 103.0 | 106.0
Cc1cccc(Nc2nc(Nc3cccc(C)c3)nc(N3CCOCC3)n2)c1 | 106.0 | 109.0
COc1cc(OC)cc(C(=O)Nc2cc3c(cc2N2CCCC2)n(C)c(=O)c(=O)n3C)c1 | 112.0 | 105.0
Cc1ccc(-c2noc(CNC(=O)c3ccc(Br)o3)n2)cc1 | 118.0 | 124.0
Cc1cc(C)cc(C(=O)N(Cc2nc(-c3ccc(Cl)cc3)no2)C(C)C)c1 | 105.0 | 105.0
COc1ccc(C)cc1NS(=O)(=O)c1c(C(=O)N2CCCCCC2)c(C)n(C)c1C | 102.0 | 104.0
CCOC(=O)c1ccc(NC(=O)c2ccc(CN3C(=O)CCn4nc(C)cc43)cc2)cc1 | 111.0 | 96.0
COc1ccc(S(=O)(=O)NCC(c2ccco2)N2CCOCC2)cc1OC (centres undefined) | 102.0 | 111.0
COc1ccc(Nc2nc3cc(Cl)c(Cl)cc3n3cnnc23)cc1Cl | 79.0 | 219.0
Cc1ccc(S(=O)(=O)N(CCc2ccccc2)CC(=O)Nc2cc(C)ccc2C)cc1 | 105.0 | 107.0

(list continues)
SMILES | Polio RdRp inh | Polio RdRp inh intensity
COc1ccc(/C=C/c2nc(C#N)c(NCCc3ccc(OC)c(OC)c3)o2)cc1OC | 112.0 | 108.0
O=C(Cn1ccn(-c2ccc(F)c(F)c2)c(=O)c1=O)c1ccc(F)cc1 | 98.0 | 105.0
CCc1ccc(-n2nc(C)c3c(C)cc(=O)n(CC(=O)Nc4cc(Cl)ccc4OC)c32)cc1 | 102.0 | 105.0
COCCn1c(C)cc(O)c(C(c2ccccc2)N2CCC(C)CC2)c1=O (centres undefined) | 108.0 | 114.0
Cc1ccc(CNC(=O)CN2C(=O)CC(c3ccc(C)c(C)c3)=Nc3ccccc32)cc1 | 101.0 | 109.0
Cc1cccc(OCc2nc(C#N)c(NCc3ccccc3Cl)o2)c1 | 107.0 | 109.0
CNc1oc(-c2ccc(COc3ccc(C)cc3)o2)nc1C#N | 110.0 | 115.0
CC(C)CCn1c(=O)c2cccnc2n(CC(=O)Nc2ccccc2)c1=O | 105.0 | 107.0
COc1ccc(Nc2c(-c3ccccn3)nc3ccc(Cl)cn23)cc1 | 107.0 | 106.0
Cc1cccc(-n2ccnc2SCC(=O)Nc2nc3ccccc3s2)c1 | 103.0 | 107.0
CCOc1ccccc1NS(=O)(=O)c1ccc(N2CCCCS2(=O)=O)cc1 | 103.0 | 97.0
CCc1ccccc1NC(=O)c1ncoc1-c1ccco1 | 100.0 | 106.0

Whole records, quoted from the list. Values in the order: Polio RdRp inh | Polio RdRp inh intensity
`CC(C)CCn1c(=O)c2cccnc2n(CC(=O)Nc2ccccc2)c1=O` is listed with 105.0 | 107.0
`Cc1ccc(CNC(=O)CN2C(=O)CC(c3ccc(C)c(C)c3)=Nc3ccccc32)cc1` is listed with 101.0 | 109.0

Further records follow:
SMILES | Polio RdRp inh | Polio RdRp inh intensity
Cc1ccccc1Nc1c(-c2ccc(Cl)cc2)nc2c(C)cccn12 | 106.0 | 109.0
CSc1ccc(CCNC(=O)C2CCCN(S(=O)(=O)N(C)c3ccc(F)cc3)C2)cc1 (centres undefined) | 104.0 | 105.0
CCc1ccc(C(=O)c2cn(CC(=O)Nc3ccc(OC)c(Cl)c3)c3nc(C)ccc3c2=O)cc1 | 111.0 | 107.0
Cc1ccccc1OCC(=O)N(Cc1ccc(N(C)C)cc1)CC1CCCO1 (centres undefined) | 105.0 | 102.0
CC(=O)c1ccc(NC(=O)c2c3c(nc4ccccc24)C(=O)N(C2CCCCC2)C3)cc1 | 101.0 | 106.0
CCc1ccc(NC(=O)c2cc(CN3CCOCC3)on2)cc1 | 114.0 | 111.0
Cc1cc2c(cc1S(=O)(=O)CCC(=O)N1CCN(c3ccccc3)CC1)OCC(=O)N2 | 101.0 | 103.0
CCc1ccc(S(=O)(=O)c2cn(C)c3cc(F)c(F)cc3c2=O)cc1 | 102.0 | 102.0
Cc1cccc(NC(=O)CSC2=Nc3ccccc3C3=NC(CCC(=O)NCc4ccco4)C(=O)N23)c1 (centres undefined) | 109.0 | 108.0
COCCCNC(=O)CCCCn1c(=O)c2ccccc2n(CC(=O)Nc2ccc(C)cc2C)c1=O | 101.0 | 102.0
COc1cc(C(=O)N2CCNC(=O)C2CC(=O)Nc2ccc(C)c(C)c2)cc(OC)c1OC (centres undefined) | 108.0 | 112.0
Cc1cc2c(cc1S(=O)(=O)N(CCN(C)C)Cc1ccco1)OCC(=O)N2 | 106.0 | 114.0
Cc1ccc(-n2nc3c(N4CCCC(C(=O)NCc5ccc(Cl)cc5)C4)nnc(C)c3c2C)cc1 (centres undefined) | 110.0 | 112.0
CCOc1ccccc1NC(=O)Cn1c(=O)n(-c2ccc(C)cc2)c(=O)c2c1cnn2C | 106.0 | 110.0
CCc1ccc(NC(=O)CSc2cn(CC(=O)N3CCCC3)c3ccccc23)cc1 | 121.0 | 111.0
Cc1ccc(CSCCNC(=O)CN(c2cccc(C)c2C)S(=O)(=O)c2ccccc2)cc1 | 106.0 | 106.0
Cc1ccc(C)c(NC(=O)C2CCCN(S(=O)(=O)c3c(C)noc3/C=C/N(C)C)C2)c1 (centres undefined) | 100.0 | 105.0
CCCOc1ccc(C(=O)N(Cc2ccc(N(C)C)cc2)CC2CCCO2)cc1 (centres undefined) | 108.0 | 105.0
COc1ccc(NC(=O)C2=C(C)Nc3ncnn3C2c2ccc[nH]2)cc1 (centres undefined) | 112.0 | 115.0
CC(C)(C)c1ccc(C(=O)N2CC(=O)Nc3ccc(F)cc3C2c2ccc(F)cc2)cc1 (centres undefined) | 103.0 | 105.0
Cc1noc(-c2ccccc2OCC(=O)Nc2ccccc2[N+](=O)[O-])n1 | 110.0 | 107.0

An excerpt of these results, with two lines to a compound:
Below each compound – Polio RdRp inh	Polio RdRp inh intensity
- CCc1ccc(NC(=O)CSc2cn(CC(=O)N3CCCC3)c3ccccc23)cc1
 : 121.0	111.0
- Cc1ccc(CSCCNC(=O)CN(c2cccc(C)c2C)S(=O)(=O)c2ccccc2)cc1
 : 106.0	106.0
- Cc1ccc(C)c(NC(=O)C2CCCN(S(=O)(=O)c3c(C)noc3/C=C/N(C)C)C2)c1 (centres undefined)
 : 100.0	105.0

4 of these compounds, reformatted.
CCc1ccc(NC(=O)CSc2cn(CC(=O)N3CCCC3)c3ccccc23)cc1
  Polio RdRp inh = 121.0 | Polio RdRp inh intensity = 111.0

Cc1ccc(CSCCNC(=O)CN(c2cccc(C)c2C)S(=O)(=O)c2ccccc2)cc1
  Polio RdRp inh = 106.0 | Polio RdRp inh intensity = 106.0

Cc1ccc(C)c(NC(=O)C2CCCN(S(=O)(=O)c3c(C)noc3/C=C/N(C)C)C2)c1 (centres undefined)
  Polio RdRp inh = 100.0 | Polio RdRp inh intensity = 105.0

CCCOc1ccc(C(=O)N(Cc2ccc(N(C)C)cc2)CC2CCCO2)cc1 (centres undefined)
  Polio RdRp inh = 108.0 | Polio RdRp inh intensity = 105.0
